TRPML1 blocker: inhibitors of human TRPML1 channel; Q9GZU1; TRPML1-inducible cells, Ca2+ dye fluorescence, FDSS; hits give low values; inhibition of EC80 agonist-evoked calcium signal; activity change, negative = inhibition, % (no concentration beside the values); actives 0.02% (n = 390,000); in the data active means activity change below about -50%; inconclusive means about -30% to -50%; inactive means above about -30%;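 note: stimulus is agonist 54-4 at its EC80 concentration; % is set by controls: 0 for no effect and ±100 for the full control effect; compound concentration not given in the record; the text of the record puts the active cut at -80%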
Target sequence (Q9GZU1 whole entry, looked up): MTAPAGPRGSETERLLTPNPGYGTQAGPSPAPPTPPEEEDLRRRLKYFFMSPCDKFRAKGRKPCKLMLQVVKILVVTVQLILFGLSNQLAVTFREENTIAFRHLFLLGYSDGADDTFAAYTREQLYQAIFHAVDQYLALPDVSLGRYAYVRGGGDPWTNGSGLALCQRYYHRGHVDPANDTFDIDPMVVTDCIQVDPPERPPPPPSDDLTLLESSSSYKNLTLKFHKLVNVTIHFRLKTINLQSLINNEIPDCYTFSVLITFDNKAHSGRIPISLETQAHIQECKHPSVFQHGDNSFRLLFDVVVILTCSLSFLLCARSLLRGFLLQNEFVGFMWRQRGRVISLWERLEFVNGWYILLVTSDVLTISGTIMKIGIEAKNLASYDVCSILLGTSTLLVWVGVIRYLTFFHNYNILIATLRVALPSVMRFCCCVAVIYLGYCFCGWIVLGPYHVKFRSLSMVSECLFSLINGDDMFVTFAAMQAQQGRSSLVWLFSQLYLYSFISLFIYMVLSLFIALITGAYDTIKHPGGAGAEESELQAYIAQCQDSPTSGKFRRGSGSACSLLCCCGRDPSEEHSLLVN
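TRPML1-DL cells, Tet-induced overnight (~16 h, 37 °C) at 1,500 cells/well, were loaded with Ca8 no-wash dye plus quencher for 45-90 min at room temperature. Compounds were pinned during FDSS kinetic reading; agonist 54-4 at EC80 (4 uM final) then added.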
CtBP-E1A blk: blocks the CtBP interaction with E1A; AlphaScreen GST-E1A/His-CtBP binding, 1536-well; hits give low values; control for the full effect not named in the record; AID 651724; actives 0.49% (n = 340,000); activity change, % (test concentration not listed); in the data active means activity change below about -65%; inconclusive means about -30% to -65%; inactive means above about -30%; note: % is set by controls: 0 for no effect and ±100 for the full control effect; compound concentration not given in the record
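Protein mix (5X: 125 nM each GST-E1A, His-CtBP) was incubated with pinned compound 2 h at 37 deg C in dark, in 50 mM Tris pH 8.0 buffer with 300 mM NaCl. Glutathione donor and nickel acceptor beads followed; AlphaScreen signal read after 1 h.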
Six1-Eya2 inh: blocks human Six1 binding to Eya2; Q15475+O00167; AlphaScreen GST-Six1/His-Eya2 binding, biochemical; hits give low values; control for the full effect not named in the record; activity change, % (test concentration not listed); actives 0.56% (n = 360,000); AID 651725; in the data active = activity change below about -65%; inconclusive = about -30% to -65%; inactive = above about -30%; note: % is set by controls: 0 for no effect and ±100 for the full control effect; compound concentration not given in the record
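Compounds are tested against tagged Six1 and Eya2 proteins bridged by glutathione donor and nickel acceptor beads; after a one-hour incubation at 37 °C without light, AlphaScreen emission is recorded.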
PINK1 modulator: changes PINK1 expression; PINK1 immunofluorescence, high-content cytometry, 24 h; Potency, µM (top dose mostly 76.6 µM), inactives show at the top dose activation (PINK1 increase), actives largely listed as activators; actives 0.2% (n = 410,000); AID 624263; active = well fitted activation curve with a large enough effect; inconclusive = small, poorly fitted or top-dose-only effect; inactive = flat fitted curve, though single readings scatter; cell line not stated here;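 note: potency is the fitted concentration of half-maximal effect; % of control where 0% means no effect; nearly all actives have a fitted effect of over 65% in size; a mitochondrial uncoupler was the plate control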
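Readout is PINK1 immunofluorescence, quantified alongside mitochondrial, cell and nuclear markers by laser-scanning microplate cytometry. Cells from a stable line were exposed to compound titrations (5 concentrations) for 24 hours, with CCCP controls.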
D2 ag: activates the human D2 dopamine receptor; P14416; DiscoveRx PathHunter D2 beta-arrestin, luminescence, 90 min; 100% = 57 uM dopamine signal; activation, % (test concentration not listed); actives 0.084% (n = 360,000); AID 624465; in the data active = activation above about 40%; inconclusive = about 15% to 40%; inactive = below about 15%; note: compound concentration not given in the record; the text of the record calls up to 30% inactive
Target sequence (P14416 whole entry, looked up): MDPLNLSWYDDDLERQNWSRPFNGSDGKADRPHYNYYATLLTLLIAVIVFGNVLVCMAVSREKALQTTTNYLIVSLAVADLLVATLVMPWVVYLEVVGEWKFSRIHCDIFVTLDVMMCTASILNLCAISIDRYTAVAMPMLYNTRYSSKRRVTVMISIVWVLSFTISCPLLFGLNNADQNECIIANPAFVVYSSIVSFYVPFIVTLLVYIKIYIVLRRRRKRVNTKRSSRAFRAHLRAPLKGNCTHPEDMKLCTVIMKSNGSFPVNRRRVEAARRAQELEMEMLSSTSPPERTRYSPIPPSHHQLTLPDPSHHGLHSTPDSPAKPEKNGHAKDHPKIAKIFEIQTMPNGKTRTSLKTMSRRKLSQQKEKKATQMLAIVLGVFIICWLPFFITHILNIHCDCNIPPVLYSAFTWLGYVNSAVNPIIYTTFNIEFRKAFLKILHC
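DiscoveRx PathHunter D2 beta-arrestin cells (2,100/well) attached overnight, then compound-stimulated 90 min at 37 C in HBSS/10 mM HEPES/0.1% Tween-20 buffer; beta-galactosidase complementation read by luminescence after 1 h at ambient temperature. Dopamine 57 uM final (EC100) as control.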
TRPML1 ag: activates the human TRPML1 channel | Q9GZU1 | TRPML1-expressing cells, Ca2+ dye fluorescence, FDSS; host cell line not named in the record; reference of the full effect not given here | activation, % (concentration not given with the values) | actives 0.12% (n = 410,000) | AID 624414; in the data active = activation above about 50%; inconclusive = about 30% to 50%; inactive = below about 30%; note: 0% is about no effect; the text of the record puts the active cut at 80%
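TRPML1-DL cells, Tet-induced overnight (~16 h, 37 degrees C), loaded 45-90 min at room temperature with Ca8 no-wash calcium dye plus quencher. FDSS fluorescence: 10 s baseline, compound pin-transfer, 110 s agonist read, then EC80 54-4 (4uM final) and 110 s antagonist read.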
Starred values were filed as active, the others as inactive; ? = inconclusive; nt = not tested or not shown; [ ] = dose if it differs, or a comment.

SMILES | TRPML1 blocker | CtBP-E1A blk | Six1-Eya2 inh | PINK1 modulator | D2 ag | TRPML1 ag
Cn1c2c(c(=O)n(C)c1=O)C(c1ccccc1Cl)C(C#N)=C(N)O2 (configuration not stated) | 31 | 10 | 2 | -0.1% | -4.7 | 4.0
O=S(=O)(c1ccc(OC(F)(F)F)cc1)N1CCC(c2nnnn2-c2ccc(F)cc2)CC1 | -11 | nt | nt | 0.3% | nt | 2.0
CC1CCN(CC(CS(=O)(=O)c2ccc([N+](=O)[O-])cc2)N2CCC(C)CC2)CC1 (configuration not stated) | nt | 1 | 0 | -0.6% | 2.0 | nt
Cc1ccc(-c2nnc(Nc3ccc(CC(N)=O)cc3)c3ccccc23)cc1S(=O)(=O)NCC1CCCO1 (configuration not stated) | -8 | -17 | -24 | 0.8% | -3.3 | 0.2
COc1ccc(NC(=O)Nc2ccc(Br)c(C)c2)cc1 | -1 | -9 | 12 | -0.4% | -2.5 | 0.1
Clc1cccc(Cc2c(-c3cccc(Cl)c3)nc3ccc(Br)cn23)c1 | 0 | -9 | 5 | 5.0% | -4.7 | 0.0
O=C(Cn1ccc2cc(S(=O)(=O)N3CCCCC3)ccc21)NCCc1ccc(Cl)cc1 | -10 | nt | nt | 1.3% | nt | 0.9
Cc1ccc(-n2ncc3c(SCC(=O)NNC(=O)C(C)C)ncnc32)cc1 | -10 | -24 | 8 | 1.2% | -3.7 | -0.6
O=C(CN1C(=O)CC(c2ccco2)Sc2ccccc21)NCc1ccc2c(c1)OCO2 (configuration not stated) | -11 | -4 | -6 | 22%[38.3 µM] | 1.8 | 1.3
CCOc1cc(/C=N/NC(=O)c2cccnc2)ccc1OCC(=O)N(C)C | -1 | 0 | 0 | 2.0% | -10 | 0.2
COC(=O)c1ccccc1NC1=C/C(=N\S(=O)(=O)c2ccc(C(=O)O)cc2)c2ccccc2C1=O | 2 | -80* | ? | -3.2% | 8.3 | 1.4
NC(Cc1ccc(C(F)(F)F)cc1)c1csc(Nc2nncc3ccccc23)n1 (configuration not stated) | nt | -10 | 18 | -1.2% | 4.6 | 7.5
O=C(CCCn1c(=S)[nH]c2ccc(Br)cc2c1=O)NCc1ccccn1 | 17 | -3 | -7 | -0.5% | 6.2 | 0.8
CC1CCCCN1C(=O)c1cc(Cl)ccc1[N+](=O)[O-] (configuration not stated) | -19 | 0 | 7 | 0.2% | -1.9 | 0.4
CC(=O)OC[C@@H]1CN(Cc2cccc(C(F)(F)F)c2)C[C@H](n2cnc3c(N4CCOCC4)ncnc32)O1 | nt | 3 | 1 | 2.6% | -3.9 | -0.6
Cn1c(SCC(N)=O)nnc1-c1ccccc1 | -4 | 27 | -1 | -3.8%[38.3 µM] | -1.8 | -0.3
O=C(CCCN1C(=O)/C(=C\c2cccs2)SC1=S)Nc1ccccn1 | -6 | -2 | -10 | 7.7% | -0.8 | 1.5
COc1cc(OC)c(NC2(c3ccccc3)C(=O)c3ccccc3C2=O)cc1Cl | 14 | nt | nt | -4.4% | nt | 1.4
Cc1cc(/C=C(\C#N)C(=O)OCC#N)c(C)n1CC(C)C | 27 | -6 | 2 | 3.2% | -4.2 | 4.5
Cc1nc(NC(=O)c2ccc(Cl)cc2)sc1Cc1ccc2c(c1)OCO2 | -4 | -3 | -5 | 4.1% | -1.2 | -0.2
CCCOc1ccc(C(=O)c2ccccc2C(=O)O)cc1OCCC | 5 | 6 | 2 | 0.5% | -6.6 | 0.0
COc1ccc2c(c1)S/C(=C\C(=O)c1ccncc1)N2C | -14 | -11 | -13 | 3.5% | -2.6 | 1.6
Cc1ccc(NC(=O)c2ccc(CSc3ncnc4nc[nH]c34)cc2)c(C)c1 | 6 | 2 | 0 | 5.0% | 0.8 | 0.0
Fc1ccccc1N1CCN(Cc2cc(-c3ccccc3)on2)CC1 | 25 | -5 | -13 | 0.1% | -7.7 | 3.6
Cc1ccc(-c2nc3ccc(C)cn3c2Cc2cccc(F)c2)cc1 | nt | 7 | -6 | 8.3% | nt | 0.6
Carrying on:
SMILES | TRPML1 blocker | CtBP-E1A blk | Six1-Eya2 inh | PINK1 modulator | D2 ag | TRPML1 ag
Cc1ccc(S(=O)(=O)NC(=O)c2cc(C)n(-c3ccccc3)c2C)cc1 | -6 | nt | -10 | 1.2% | 0.0 | -0.8
Cn1nc(OCC(=O)O)cc1C(F)(F)F | -3 | 14 | 8 | 4.6% | -2.5 | -0.6
CC[C@H](C)NC(=O)CCCc1nnc2n(CCC(C)C)c(=O)c3sccc3n12 | -3 | nt | nt | 2.7% | nt | -1.0
NC(=O)C1CCN(C(=O)C2CCC(=O)N(Cc3ccc(Cl)cc3)C2)CC1 (configuration not stated) | 17 | 3 | 3 | -0.4% | 0.8 | 0.2
CCOC(=O)C1=C(C)OC(N)=C(C#N)C1c1c(C)nn(-c2ccccc2)c1Cl (configuration not stated) | 7 | 35 | 10 | 2.4% | -3.9 | 0.3
CCc1ccccc1Nc1ncnc2ccccc12 | -2 | 36 | 25 | 0.4% | 4.5 | 0.8
CCOC(=O)Cc1csc(NC(=O)CSc2nnc(C(C)C)n2C)n1 | 22 | 4 | 0 | -1.3% | -2.0 | 5.1
CC(C)(C)C(=O)Nc1ccc(N=Nc2ccccc2)cc1 | 3 | -5 | -11 | 9.9% | -5.3 | 0.1
COc1ccccc1CNC(=O)CN1C(=O)NC2(CCC(C)CC2)C1=O (configuration not stated) | 5 | 4 | 6 | 1.5% | 6.5 | -0.2
Cc1nn(-c2ccc(Cl)cc2)c(=O)c2ccccc12 | -3 | nt | 1 | -0.4% | 0.2 | 1.0
Cc1sc(NC(=O)c2ccccc2F)c(CN2CCCCC2C)c1C (configuration not stated) | 40 | -1 | -3 | 3.7% | -5.6 | -1.5
CCC(=O)/C=C1/Sc2ccc(OC)cc2N1CC | 28 | 7 | -7 | -2.7%[38.3 µM] | -1.9 | -0.7
Cc1ccc(NC(=O)c2cccc(S(=O)(=O)Nc3c(C)n(C)n(-c4ccccc4)c3=O)c2)cc1C | 4 | 3 | -1 | 3.2% | 6.6 | 4.2
CC(C)OCCCNC(=O)c1cccc2c1C(=O)c1ccc(Cl)cc1S2(=O)=O | -13 | 8 | 5 | 1.8% | -1.9 | -0.8
CCOC(=O)c1cc2sccc2n1Cc1ccc(C#N)cc1 | 10 | 12 | 8 | 0.4%[38.3 µM] | -3.4 | 4.9
COc1cc(CNc2ncnc3c2[nH]c2ccc(C)cc23)cc(OC)c1 | -13 | nt | -14 | ? | -5.0 | 0.5
Cn1c(CN2CCN(C(=O)c3ccccc3)CC2)nc2cc([N+](=O)[O-])ccc21 | 21 | nt | 3 | -1.3% | -1.5 | 1.7
O=C(CSc1nc2cc(Cl)ccc2s1)NC1CCCc2ccccc21 (configuration not stated) | 53 | 7 | 5 | 5.5% | -2.5 | 2.1
CCCSc1ncc(Cl)c(C(=O)Nc2c(C(=O)c3ccc(F)cc3)oc3ccccc23)n1 | 19 | nt | nt | -1.1% | nt | 0.5
Cc1cc(=O)n(C(C)(C)C)c(=O)n1Cc1ccccc1 | nt | -2 | -9 | 3.5% | -6.0 | nt
COc1ccc(Cl)cc1C(=O)NNC(=O)c1ccc(F)c(S(=O)(=O)N2CCOCC2)c1 | -11 | -9 | -13 | -2.2% | 3.8 | 0.1
O=S(=O)(Cc1ccccc1)NC1c2ccccc2Oc2ccccc21 | 9 | -2 | -7 | -1.1% | -1.3 | 0.4
CCOc1ccc2c(c1)c1nnc(SCC3CCCO3)nc1n2C (configuration not stated) | 35 | -12 | -8 | -2.5% | -2.0 | 1.9
Cc1ccn2c(Nc3ccc(C(C)C)cc3)c(-c3ccsc3)nc2c1 | 10 | nt | nt | -1.2% | nt | -1.2
CCC(C)/C(C)=N/NC(=O)CNS(=O)(=O)c1ccc([N+](=O)[O-])cc1 (configuration not stated) | -19 | 6 | -7 | -1.8% | 9.4 | -0.5

Among those listed so far, 3 have a COOH group.
SMILES | TRPML1 blocker | CtBP-E1A blk | Six1-Eya2 inh | PINK1 modulator | D2 ag | TRPML1 ag
COC(=O)c1ccccc1NC1=C/C(=N\S(=O)(=O)c2ccc(C(=O)O)cc2)c2ccccc2C1=O | 2 | -80* | ? | -3.2% | 8.3 | 1.4
CCCOc1ccc(C(=O)c2ccccc2C(=O)O)cc1OCCC | 5 | 6 | 2 | 0.5% | -6.6 | 0.0
Cn1nc(OCC(=O)O)cc1C(F)(F)F | -3 | 14 | 8 | 4.6% | -2.5 | -0.6

(listing goes on)
SMILES | TRPML1 blocker | CtBP-E1A blk | Six1-Eya2 inh | PINK1 modulator | D2 ag | TRPML1 ag
O=C(Nc1ccc(F)cc1)c1cccc2c1C(=O)N(CC1CCCO1)C2 (configuration not stated) | -11 | 3 | -3 | 0.7% | -1.6 | -0.9
Cc1c(N(CC(=O)O)S(=O)(=O)c2ccccc2)c(=O)n(-c2ccccc2)n1C | 42 | 3 | 7 | -0.8% | -3.7 | -0.6
Cc1cccc(C)c1-n1c(C)cc(/C=N/NC(=O)c2ccncc2)c1C | 6 | -13 | -8 | -4.7%[38.3 µM] | 0.2 | -0.3
CCCNC(=O)C(CC)n1nc(CC)n2c(cc3oc(C)cc32)c1=O (configuration not stated) | 1 | nt | nt | -1.8% | nt | 1.5
COc1ccc(OCC(=O)NCCS(=O)(=O)N2CCN(c3cccc(Cl)c3)CC2)cc1 | 2 | nt | nt | 0.2% | nt | 2.7
COc1ccc(Sc2nnc(-c3ccccc3)cc2C#N)cc1 | -6 | -4 | 10 | 12% | -1.2 | 0.7
O=[N+]([O-])c1cc(S(=O)(=O)NCCCN2CCOCC2)ccc1Cl | 37 | -3 | 23 | -1.3% | -1.8 | 0.8
CCN(CC)CCOC(=O)c1ccc(Cl)cc1Cl | 7 | 7 | -2 | -0.7% | -1.3 | -0.6
CS(=O)(=O)c1ccc(C(=O)N2CCc3ccccc3C2)cc1 | -3 | 4 | 18 | -0.2% | -4.7 | 0.1
COC(=O)[C@H](Cc1ccccc1)NC(=O)NCc1cccs1 | 7 | 6 | 1 | -6.8%[38.3 µM] | 2.0 | 0.5
O=C(Cn1nc(-c2ccccc2)ccc1=O)Nc1ccc(NC(=O)c2ccccn2)cc1 | -15 | nt | 0 | 3.6% | 0.6 | 4.0
COc1ccc(-c2ccc3c(N)c(C(=O)Nc4cc(F)ccc4C)sc3n2)cc1 | -21 | nt | nt | 3.1% | nt | 0.2
Cc1cc(-c2cccnc2)c(C#N)c(SCC#N)n1 | -6 | 0 | 0 | nt | 0.7 | -0.1
COc1ccc(NC(=O)c2ccco2)cc1NC(=O)COc1cc(C)cc(C)c1 | -11 | nt | nt | 4.6% | nt | 2.5
Nn1c(SCc2cn3ccsc3n2)nnc1-c1ccncc1 | -2 | 10 | 7 | 0.0% | 0.4 | 0.6
Cc1nn(-c2cccc(Cl)c2)c2nc(-c3ccncc3)cc(C(=O)N3CCOCC3)c12 | 4 | 5 | 1 | -1.0% | 0.4 | -0.1
COc1cccc(-c2cnc(C(O)c3c(C)cccc3C)[nH]2)c1 (configuration not stated) | nt | -1 | -10 | 2.0% | -3.6 | -0.5
